# Vaccinia stage = Vaccinia orthopox stage-specific inhibition | 89,000 compounds, 0.01% hits | Vaccinia-infected cells, mCherry/Venus stage reporter fluorescence; active compounds read low; some inactives read as strong as hits | AID 1053133 | activity change (mCherry), % (no concentration beside the values);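 active = mCherry past -33% and 40 or more points under the early reporter, replicates agreeing; inconclusive = past -33% without that gap or agreement; tested in A549 cells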;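 also: scaled between vehicle wells and reference inhibitor wells; 23 nL library stock went into each well; one replicate is shown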
# Vaccinia stage Venus = also measured in Vaccinia stage; calls as there; activity change (Venus), %; measured here: Venus reporter, other viral stage;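 negative = less Venus signal; first of two replicates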
# * = called active by the depositor; ? = inconclusive; . = no result given; & = joins results of further samples. Only part of the results is shown; count on the stated rates, not on these rows.
compound | Vaccinia stage | Vaccinia stage Venus
Cc1noc(C)c1NC(=O)N(C)C[C@H]1Oc2ccc(NC(=O)Cc3cn(C)c4ccccc34)cc2C(=O)N([C@H](C)CO)C[C@@H]1C | 18 | 1
CC(=O)N(C[C@@H]1N[C@@H](CO)[C@@H]1c1ccc(-c2cccnc2)cc1)C1CCCC1 | 7 | -1
CO[C@H]1CN(C)C(=O)c2ccc(NC(=O)C3CC3)cc2OC[C@@H](C)N(CCC(F)(F)F)C[C@H]1C | -20 | -17
C[C@@H]1CN([C@@H](C)CO)C(=O)c2cc(NC(=O)C3CCCCC3)ccc2O[C@@H]1CN(C)Cc1ccc(Cl)c(Cl)c1 | -30 | -19
CCC(=O)N1[C@H](CO)[C@@H](c2ccc(-c3ccc(F)cc3)cc2)[C@@H]1CN(C)C(C)=O | 0 | -8
CCCC#Cc1ccc([C@@H]2[C@@H](CO)N3C(=O)CN(C(=O)c4ccccc4)C[C@H]23)cc1 | -14 | -7
O=S(=O)(c1ccccc1F)N1CC[C@@H]2[C@H](CO)Nc3ccc(-c4ccccc4)cc3[C@@H]21 | ? | .
CC(C)C#Cc1cnc2c(c1)C(=O)N([C@@H](C)CO)C[C@H](C)[C@H](CN(C)C(=O)Nc1ccccc1)O2 | -2 | -2
C[C@H]1CN([C@@H](C)CO)C(=O)CCCn2nncc2CO[C@H]1CN(C)C(=O)CCC(F)(F)F | 8&9 | 6&7
CO[C@@H]1CN(C)C(=O)c2ccc(NC(C)=O)cc2OC[C@@H](C)N(CCc2ccccc2)C[C@@H]1C | 10 | 10
COCC(=O)N1C[C@H](C)[C@H](OC)CN(C)C(=O)c2cc(NC(=O)NC(C)C)ccc2OC[C@@H]1C | 4 | -4
C[C@H]1CN([C@@H](C)CO)C(=O)c2cc(NC(=O)CCCN(C)C)ccc2O[C@H]1CN(C)C(=O)Nc1cccc2ccccc12 | 21 | 11
COc1cccc(S(=O)(=O)N[C@H]2CC[C@@H](CC(=O)NCc3ccncc3)O[C@H]2CO)c1 | 10 | 3
C[C@@H]1CN([C@@H](C)CO)C(=O)c2cc(NC(=O)Nc3ccc(C(F)(F)F)cc3)ccc2O[C@@H](C)CCCCO[C@H]1CN(C)C(=O)c1ccccc1 | -12 | 3
O=C(NC1CCCCC1)N1CC(=O)N2[C@@H](CO)[C@H](c3ccc(-c4ccncc4)cc3)[C@@H]2C1 | 21 | 15
COCc1cn(CC[C@@H]2CC[C@H](NC(=O)c3ccncc3)[C@H](CO)O2)nn1 | -1 | 1
OC[C@@H]1[C@H](c2ccc(-c3ccc(F)cc3)cc2)[C@H](CNC2CCCC2)N1CCC(F)(F)F | ? | .
c1cncc(-c2ccc(C3[C@H]4CNC[C@@H]3N4CC3CCCCC3)cc2)c1 (some centres undefined) | 7 | 2
Cc1ccc(S(=O)(=O)Nc2ccc3c(c2)C(=O)N([C@@H](C)CO)C[C@H](C)[C@@H](CN(C)C(=O)Cc2ccccc2)OCCCC[C@H](C)O3)cc1 | ? | .
COc1ccc(S(=O)(=O)N(C)C[C@@H]2OCc3cn(nn3)CCCC(=O)N([C@@H](C)CO)C[C@H]2C)cc1 | 1&2 | -3&-7
CO[C@H]1CN(C)C(=O)c2ccc(NC(=O)Nc3ccccc3F)cc2OC[C@@H](C)N(C(C)=O)C[C@H]1C | 30 | 22
O=C(C1CCCCC1)N1C[C@H]2[C@@H](c3ccccc31)[C@H](CO)N2Cc1ccccc1Cl | -22 | -11
Cc1noc(C)c1S(=O)(=O)Nc1ccc2c(c1)CC(=O)N([C@@H](C)CO)C[C@H](C)[C@@H](CN(C)C(=O)Nc1ccccc1)O2 | -1 | 0
O=C(Nc1ccc2c(c1)[C@@H]1C[C@H](CC(=O)N3CCOCC3)O[C@@H](CO)[C@@H]1O2)C1CCOCC1 | 6 | 3
C[C@@H]1CN([C@@H](C)CO)C(=O)c2cc(NC(=O)CCC(F)(F)F)ccc2O[C@@H](C)CCCCO[C@@H]1CN(C)S(=O)(=O)c1cn(C)cn1 | 16 | 6
C[C@H](CO)N1C[C@H](C)[C@@H](CN(C)CC2CC2)Oc2c(NC(=O)Nc3ccc(F)cc3)cccc2C1=O | -1 | 4
N#C[C@H]1[C@@H](c2ccc(C#CC3(O)CCCC3)cc2)[C@@H](CO)N1C(=O)C1CC1 | 21 | 15
CN(C)C(=O)C[C@@H]1CC[C@@H]2[C@H](COC[C@@H](O)CN2CC2CCCC2)O1 | 2 | 8
CC(C)c1cn(CC[C@H]2CC[C@H](NC(=O)C3CCC3)[C@H](CO)O2)nn1 | 8 | 7
C[C@H](CO)N1C[C@H](C)[C@H](CN(C)C(=O)Nc2ccc(F)cc2)Oc2ccc(NS(=O)(=O)c3cccs3)cc2C1=O | 16 | 6

# Single records, as listed above:
# Shown for `O=C(NC1CCCCC1)N1CC(=O)N2[C@@H](CO)[C@H](c3ccc(-c4ccncc4)cc3)[C@@H]2C1` : Vaccinia stage: 21; Vaccinia stage Venus: 15
# Shown for `CO[C@@H]1CN(C)C(=O)c2ccc(NC(C)=O)cc2OC[C@@H](C)N(CCc2ccccc2)C[C@@H]1C` : Vaccinia stage: 10; Vaccinia stage Venus: 10

# (continued)
compound | Vaccinia stage | Vaccinia stage Venus
O=C(C[C@H]1CC[C@H]2[C@@H](COC[C@H](O)CN2CC2CCOCC2)O1)NCc1ccc(Cl)cc1 | 7 | 4
Cc1cccc(NC(=O)Nc2ccc3c(c2)C(=O)N(C)[C@H]2CC[C@H](CC(=O)O)O[C@H]2CO3)c1 | 2 | 8
CCNC(=O)C[C@H]1CC[C@H]2[C@H](COc3ccc(NC(=O)c4cc(C)on4)cc3C(=O)N2C)O1 | 3 | 5
CN1C(=O)c2cc(NC(=O)C3CCCC3)ccc2OC[C@@H]2O[C@@H](CC(=O)O)CC[C@H]21 | 12 | 11
COc1cccc(S(=O)(=O)N[C@@H]2CC[C@@H](CCn3cc(-c4ccccn4)nn3)O[C@@H]2CO)c1 | -4 | 6
CN(C)C(=O)c1cccc(-c2ccc([C@H]3[C@@H](CO)N(C(=O)C4CC4)[C@H]3C#N)cc2)c1 | -5 | -6
C[C@@H]1CN([C@H](C)CO)C(=O)c2cccc(N(C)C)c2O[C@H]1CN(C)Cc1ccc(C(F)(F)F)cc1 | -31 | -19
CO[C@H]1CN(C)C(=O)c2cc(NC(=O)c3cnccn3)ccc2OC[C@H](C)N(CC2CC2)C[C@H]1C | 6 | 8
O=C(Cc1ccccn1)NCC[C@H]1CC[C@@H](NC(=O)c2ccccc2F)[C@@H](CO)O1 | 2 | 10
Cc1cc(C(=O)Nc2cccc3c2O[C@@H](CN(C)CC2CCCCC2)[C@@H](C)CN([C@H](C)CO)C3=O)n(C)n1 | 2 | 0
CC(=O)N(C)C[C@@H]1Oc2ncc(/C=C/c3ccccc3)cc2C(=O)N([C@H](C)CO)C[C@@H]1C | 6 | 0
CCC(=O)N1[C@H](CO)[C@@H](c2ccc(-c3cccc(OC)c3)cc2)C12CN(C(C)=O)C2 | 9 | 8
CCNC(=O)C[C@H]1CC[C@H]2[C@@H](COC[C@H](O)CN2C(=O)C2CC2)O1 | 1 | 4
O=C(C[C@H]1CC[C@H]2[C@@H](COC[C@@H](O)CN2S(=O)(=O)c2ccc(F)cc2)O1)NCC1CC1 | 14 | 20
CCC(=O)N(C)C[C@H]1Oc2cc(C#CC3(O)CCCC3)ccc2S(=O)(=O)N([C@H](C)CO)C[C@@H]1C | -3 | 11
COc1ccc(S(=O)(=O)Nc2ccc3c(c2)C(=O)N([C@@H](C)CO)C[C@H](C)[C@@H](CN(C)Cc2ccc4c(c2)OCO4)OCCCC[C@H](C)O3)cc1 | ? | .
C[C@@H]1CN([C@H](C)CO)C(=O)c2cc(NC(=O)c3ccccc3)ccc2O[C@@H](C)CCCCO[C@@H]1CN(C)CC1CCCCC1 | ? | .
O=C(NC1CCCC1)[C@H]1[C@H](CO)[C@H]2Cn3c(cccc3=O)[C@H]2N1CC1CCOCC1 | 14 | 7
O=C(c1ccccc1F)N1CC(=O)N2[C@@H](CO)[C@H](c3ccc(C#Cc4ccccc4)cc3)[C@@H]2C1 | -25 | -24
CC(=O)N1[C@@H]2c3ccc(C4=CCCCC4)c(=O)n3C[C@H]1[C@H](CO)[C@H]2C(=O)N[C@H](C)c1ccccc1 | -8 | -3
Cc1noc(C)c1NC(=O)Nc1cccc2c1O[C@H](CN(C)CC1CCCCC1)[C@@H](C)CN([C@@H](C)CO)C2=O | -3 | 10
C[C@@H]1CN([C@@H](C)CO)S(=O)(=O)c2ccc(Br)cc2O[C@H]1CN(C)C(=O)C1CC1 | 2 | -3
CCCN(C)C[C@H]1OCCCC[C@H](C)Oc2ccc(NS(=O)(=O)c3ccccc3)cc2C(=O)N([C@@H](C)CO)C[C@H]1C | -2 | 1
C[C@@H]1CCCCO[C@@H](CN(C)Cc2ccc(C(=O)O)cc2)[C@@H](C)CN([C@H](C)CO)C(=O)c2cc(NC(=O)Nc3ccc4c(c3)OCO4)ccc2O1 | 8 | 8
Cc1cc(C(=O)Nc2cccc3c2O[C@H](CN(C)S(=O)(=O)c2ccc(F)cc2)[C@@H](C)CN([C@@H](C)CO)C3=O)n(C)n1 | 17 | 15
C[C@H](CO)N1C[C@H](C)[C@H](CN(C)Cc2ccc3c(c2)OCO3)Oc2ccc(NS(=O)(=O)c3cccs3)cc2C1=O | 24 | 11
N#C[C@H]1N[C@@H](CO)[C@H]1c1ccc(C#CC2CCCCC2)cc1 | 6 | 10
C[C@H](CO)N1C[C@H](C)[C@H](CN(C)C(=O)[C@H]2CCCN2C)OCc2ccccc2-c2ccccc2C1=O | 2 | -7
C[C@H](CO)N1C[C@H](C)[C@@H](CN(C)C(=O)Nc2ccc(F)cc2)OCCCC[C@H](C)Oc2ccc(NS(=O)(=O)c3ccc(Cl)cc3)cc2C1=O | 18 | 10
C[C@@H]1CCCCO[C@@H](CN(C)Cc2ccc(C(=O)O)cc2)[C@H](C)CN([C@@H](C)CO)C(=O)c2cc(NC(=O)Cc3ccccc3)ccc2O1 | 7 | 4
COc1cccc(NC(=O)C[C@@H]2CC[C@@H]3[C@@H](COc4ccc(NC(C)=O)cc4C(=O)N3C)O2)c1 | -2 | 4
O=C(NC[C@H]1[C@@H](c2ccccc2)[C@H](CO)N1C(=O)Cc1cccnc1)C1CC1 | 6 | 1
CO[C@H](CN(C)S(=O)(=O)c1cccc(Cl)c1)[C@H](C)CN(C(=O)Nc1ccccc1F)[C@@H](C)CO | -3 | 6
C[C@H](CO)N1C[C@H](C)[C@@H](CN(C)C(=O)CCC(F)(F)F)OCCCC[C@H](C)Oc2ccc(N(C)C)cc2C1=O | 0 | -6
COc1cccc(C(=O)Nc2ccc3c(c2)OC[C@H](C)N(C(=O)C2CCCC2)C[C@@H](C)[C@@H](OC)CN(C)C3=O)c1 | -25 | -21
O=C(c1cccnc1)N1CC[C@@H]2[C@H](CO)Nc3ccc(C4=CCCCC4)cc3[C@@H]21 | -9 | -3
C[C@H]1CN([C@@H](C)CO)C(=O)c2cc(NC(=O)Nc3cccc4ccccc34)ccc2O[C@@H]1CN(C)C(=O)Nc1ccc2c(c1)OCO2 | 16 | 29
CCS(=O)(=O)Nc1ccc2c(c1)C(=O)N(C)C[C@@H](OC)[C@H](C)CN(Cc1cccnc1)[C@H](C)CO2 | 13 | 11
COc1ccc(NC(=O)N[C@@H]2C=C[C@@H](CC(=O)NC3CCCCC3)O[C@@H]2CO)cc1 | -10 | -7
C[C@@H]1CCCCO[C@H](CN(C)C(=O)C2CCCCC2)[C@H](C)CN([C@@H](C)CO)C(=O)c2cc(NS(=O)(=O)c3cccs3)ccc2O1 | -34 | -20
C[C@H](CO)N1C[C@H](C)[C@H](CN(C)S(=O)(=O)c2ccccc2)Oc2cc(Br)ccc2S1(=O)=O | -11 | -5
CN(C)C(=O)c1ccc(-c2ccc3c(c2)[C@@H]2[C@@H](CCN2C(=O)c2cnccn2)[C@H](CO)N3)cc1 | 22 | 0
C[C@H](CO)N1C[C@H](C)[C@@H](CN(C)C)Oc2cc(C#CCN(C)C)ccc2S1(=O)=O | -10 | -19
CCCNC(=O)C[C@H]1CC[C@@H]2[C@@H](COc3ccc(NC(=O)C4CCCC4)cc3C(=O)N2C)O1 | 5 | -3
COC(=O)C[C@H]1CC[C@H]2[C@@H](COc3ccc(NC(=O)Nc4cccc(Cl)c4)cc3C(=O)N2C)O1 | -11 | -6
C[C@H]1CN([C@@H](C)CO)C(=O)c2cc(-c3cccc(F)c3)cnc2O[C@@H]1CN(C)CC1CCOCC1 | 3 | 7
CNC(=O)C[C@@H]1CC[C@H]2[C@@H](COc3ccc(NC(=O)c4ccccc4Cl)cc3C(=O)N2C)O1 | 3 | 7
CO[C@@H]1CN(C)C(=O)c2ccc(NC(=O)Nc3cccc(F)c3)cc2OC[C@@H](C)N(C(=O)Nc2c(C)noc2C)C[C@@H]1C | 27 | 15
CO[C@H]1CN(C)C(=O)c2cc(NS(=O)(=O)CC(F)(F)F)ccc2OC[C@@H](C)N(Cc2ccccn2)C[C@H]1C | 10 | 7
CCNC(=O)[C@H]1[C@H](CO)[C@H]2Cn3c(ccc(-c4ccccc4)c3=O)[C@H]2N1C(=O)C1CCC1 | 17 | 13
O=C(N[C@@H]1CC[C@H](CCNC(=O)C2CCCCC2)O[C@H]1CO)c1ccccn1 | 2 | 10

# A second format for some results above:
# Values run as follows: Vaccinia stage | Vaccinia stage Venus
- C[C@@H]1CCCCO[C@H](CN(C)C(=O)C2CCCCC2)[C@H](C)CN([C@@H](C)CO)C(=O)c2cc(NS(=O)(=O)c3cccs3)ccc2O1
    -34 | -20
- C[C@H](CO)N1C[C@H](C)[C@H](CN(C)S(=O)(=O)c2ccccc2)Oc2cc(Br)ccc2S1(=O)=O
    -11 | -5
- CN(C)C(=O)c1ccc(-c2ccc3c(c2)[C@@H]2[C@@H](CCN2C(=O)c2cnccn2)[C@H](CO)N3)cc1
    22 | 0
- C[C@H](CO)N1C[C@H](C)[C@@H](CN(C)C)Oc2cc(C#CCN(C)C)ccc2S1(=O)=O
    -10 | -19
